# Screens from PubChem BioAssay.
# Autofluor counter: flagged as autofluorescent in microsphere protease counterscreen; compound autofluorescence counterscreen, microsphere flow cytometry; stronger effect = higher value; fluorescence intensity (no concentration beside the values); hit rate 3.1% among 360,000;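 active = at least 3 SD above the mean of all compounds, about 16000 in these data; inconclusive = too few beads counted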;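 also: 100 nL of 1 mM stock went into each well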
# Mtb hypoxia inh: Mtb hypoxia fluorescent reporter inhibition; M. tuberculosis hypoxia-regulated fluorescent reporter, fluorescence; fluorescence inhibition, % (no concentration beside the values); hit rate 0.1% among 300,000;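 active = 35 to 45% if threefold the growth effect, above 45% if 1.5-fold the growth effect; inactive = the rest, general growth blockers included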;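 also: wells of about 50 µL received 100 nL stock; 0% = vehicle wells and 100% = reference inhibitor wells; whole bacteria with a GFP reporter of the hypoxia response; strong numbers were not always called active; many hits fall short of the cut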
# PrP UTR inh: suppresses PrP 5' UTR mRNA reporter expression; AID 488862; inhibition, % (no concentration beside the values); hit rate 0.35% among 340,000; cell-based PrP 5' UTR mRNA reporter, plate reader;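 active = every replicate at 50% or more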;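 also: 0 = median of the neutral control wells; tested in H4 reporter cells; numbers are from one replicate; inactives centre near -14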
# Sa ugtP lethal: kills S. aureus RN4220 lacking UgtP | S. aureus RN4220 ugtP deletion, OD600 growth, 16 h; some inactives read as strong as hits | growth inhibition, % (no concentration beside the values) | hit rate 0.54% among 330,000 | AID 1259309;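 active = z-score under -3 and OD600 up to 0.15 on both plates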;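 also: plate controls were untreated wells for no effect and antibiotic for full effect; wells of about 80 µL received 100 nL stock; the first replicate is given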
# Sa RN4220 lethal: kills Staphylococcus aureus RN4220; S. aureus RN4220 growth, OD600, 16 h; inhibition, % (no concentration beside the values); hit rate 0.33% among 330,000; AID 1259311;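 active = z-score of -3 or lower and OD600 up to 0.18 on both plates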;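 also: plate controls were untreated cells for no effect and reference antibiotic for full effect; stock transfer was 100 nL into about 80 µL; one replicate is shown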
# BJeLR lethal: BJeLR cell viability loss | BJeLR (HRASV12) viability, CellTiter-Glo ATP luminescence, 48 h; reference of the scale not given here | inhibition, % (test concentration not listed) | hit rate 0.17% among 300,000;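 active = replicate mean above 50%; inconclusive = above 50% but judged a plate artefact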;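 also: 50 nL library stock added to about 25 µL; numbers are from one replicate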
# Mtb hypoxia inh growth: recorded beside Mtb hypoxia inh, whose call it bears; growth inhibition, %; measured here: M. tuberculosis growth (absorbance);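 0% = vehicle and 100% = reference antibiotic; read after six days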
# Starred values were filed as active, the others as inactive; ? = inconclusive; · = not tested or not shown.
entry	Structure	Autofluor counter	Mtb hypoxia inh	Mtb hypoxia inh growth	PrP UTR inh	Sa ugtP lethal	Sa RN4220 lethal	BJeLR lethal
1	COC(=O)CN1C(=O)NC2(CCCc3ccccc32)C1=O (configuration not stated)	3895	-3	-12	-9	-3	2.4	-11
2	CCOC(=O)c1cc2c(=O)n3ccccc3nc2n(Cc2ccc(Cl)cc2)c1=N	5669	6	3	-28	3	2.2	·
3	COc1ccc(Nc2nnc(Cc3ccccc3)c(=O)[nH]2)c(OC)c1	3704	18	10	-10	-1	1.5	3
4	O=C(COC(=O)c1cc(-c2cccs2)nc2ccccc12)NC1CCS(=O)(=O)C1 (configuration not stated)	3183	4	3	-16	2	4.5	2
5	c1nc(N2CCC3(CC2)OCCO3)c2[nH]cnc2n1	2323	12	5	-1	5	5.9	-4
6	Cc1cc(C)n(CC(C)O)c(=O)c1C#N (configuration not stated)	3999	3	2	-30	-5	4.1	0
7	CC(C)[C@@H](C(=O)N[C@@H](Cc1ccccc1)C(=O)O)N1C(=O)N2CCc3c([nH]c4ccccc34)[C@@]2(C)C1=O	5201	·	·	-22	-12	5.6	-12
8	Cn1c(C(=O)N(Cc2ccccc2)Cc2ccccn2)cc2sccc21	11781	6	6	-7	4	2.5	3
9	CC(C)Oc1ccc(C(CC(=O)O)NC(=O)Cc2ccccc2)cc1 (configuration not stated)	3650	4	7	-7	-1	2.5	13
10	COc1ccc2oc(C(=O)OCC(=O)Nc3ccccc3OC)c(C)c2c1	4921	-5	0	-4	0	3.3	-1
11	O=C1CCC(C(=O)N2CCCCO2)CN1Cc1cccc(C(F)(F)F)c1 (configuration not stated)	6062	-2	8	2	-1	2.1	-6
12	COc1ccc(C2=NN(C(=O)CSc3cn(C)c4ccccc34)C(c3ccc(OC)cc3)C2)cc1 (configuration not stated)	5960	1	6	-22	-22	-12	1
13	CCOc1c(OC(C)=O)ccc(/C=C/c2ccc3cccc(OC(C)=O)c3n2)c1[N+](=O)[O-]	8238	-3	1	-50	-11	3.6	0
14	Cc1cc(NS(=O)(=O)c2ccccc2)n(-c2ccccc2)n1	4065	-1	-1	-10	-11	0.5	8
15	C=CCn1cnnc1SCC(=O)NCC1COc2ccccc2O1 (configuration not stated)	5001	0	-2	-22	4	0.3	·
16	CS(=O)(=O)N1CCCC(C(=O)NCc2cccs2)C1 (configuration not stated)	7857	12	5	-26	1	4.1	-3
17	CC(C)(C)c1ccc(C(=O)N/C(=C\c2cccs2)C(=O)NCc2ccco2)cc1	9453	-16	-6	-15	-3	-2.6	-6
18	COc1ccc(CN2CNc3nc4ccccc4n3C2)cc1	10222	-12	3	-1	-2	2.8	-11
19	CCC(C)C(=O)Nc1nccs1 (configuration not stated)	4293	2	9	43	-2	0.0	7
20	Cc1nc2c(C)cccn2c(=O)c1NC(=O)c1ccc2c(c1)OCO2	?	-6	1	9	9	2.0	8
21	CCOC(=O)C1=C(C)C2C3C(=O)N(c4cc(C)ccc4C)C(=O)C3C1(C)C1C(=O)N(c3cc(C)ccc3C)C(=O)C21 (configuration not stated)	2606	5	3	-4	-1	7.7	3
22	Cc1cc(OC(=O)N(C)C)nc2c1c(C)nn2C	6511	3	0	-16	10	2.3	-4
23	CCCc1nnc(NC(=O)c2nc(S(=O)(=O)Cc3ccc(C)cc3)ncc2Cl)s1	5275	·	·	-25	·	·	5
24	Cc1ccc(NC(=O)c2ccc(N3CCOCC3)c([N+](=O)[O-])c2)cc1S(=O)(=O)N1CCOCC1	2045	-10	2	-11	3	1.8	-14
25	CCOC(=O)N1CCN(C(=O)Cn2cnc3ccccc3c2=O)CC1	4074	2	-3	-10	1	3.1	9
26	c1ccc(OCc2nnc3n2CCCCC3)cc1	3814	7	-4	-5	2	0.4	8
27	COc1ccc(NC(=O)CN2C(=O)COc3ccc(S(=O)(=O)N4CCCCC4)cc32)cc1OC	5909	2	7	1	3	-0.3	-12
28	Cc1ccc(C(=O)OCC(=O)Nc2sc3c(c2C#N)CCCCC3)cc1NC(=O)c1ccco1	?	2	6	-22	-12	-0.9	-3
29	Cc1ccc(C)c(S(=O)(=O)N2CCN(C(=O)c3ccc(-n4cncn4)c([N+](=O)[O-])c3)CC2)c1	5131	8	12	-12	6	0.0	0
30	CCNc1nc(-c2ccc(OC(F)F)cc2)c(C)s1	4704	4	-1	-51	-2	-2.4	-3
31	O=C(Nc1sc2c(c1C(=O)O)CCCC2)c1ccccc1Cl	4170	-2	7	-25	-19	18	-17
32	COc1ccccc1/C=C/C=N/n1c(-c2ccc(Cl)cc2Cl)n[nH]c1=S	4367	·	·	-11	·	·	3
33	CC(=NNC(=O)CNC(=O)C1COc2ccccc2O1)c1ccco1 (configuration not stated)	·	12	7	·	5	1.0	·
34	COc1ccc(C(=O)N2CCCC(c3nc(-c4cccs4)no3)C2)cc1OC (configuration not stated)	25010*	-1	0	-11	6	4.2	-2
35	CCC(=O)Nc1ccc(NC(=O)c2ccccc2)nc1	2107	0	-1	-63	-1	-1.1	11
36	CCn1cc(C(=O)O)c(=O)c2cc(F)c(N3CCN(C(=S)NC(=O)c4ccccc4Cl)CC3)cc21	4996	8	20	-22	100*	100*	-1
37	CCN(CCO)c1ncnc2c1sc1nc(C(C)C)c3c(c12)CC(C)(C)OC3	4328	-3	-6	16	-6	-0.9	6
38	O=C(Nc1cccc(O)c1)C1CC(c2ccc(Cl)cc2)=NO1 (configuration not stated)	4480	·	·	-20	·	·	4
39	CN(C(=O)NC1CC(=O)N(c2ccc3c(c2)OCCO3)C1)c1ccccc1 (configuration not stated)	4204	6	7	-30	15	4.0	1
40	O=C(NNc1cccc([N+](=O)[O-])c1)/C(=C\c1cccnc1)NC(=O)c1ccccc1	4685	6	4	-1	7	1.4	-2
41	COc1ccccc1CCNC(=O)CSc1nnc2ccc(-c3cccnc3)nn12	4214	8	15	-13	9	2.0	-2
42	O=C(NC(=S)Nc1ccc(S(=O)(=O)Nc2nccs2)cc1)c1cccc(F)c1	2638	19	8	-19	69	6.1	-11
43	COc1ccccc1-n1cnc2cc(C(=O)NCc3ccco3)ccc21	5815	·	·	-23	4	0.1	-5
44	O=C(NC1CCCCNC1=O)c1ccc(Cl)cc1 (configuration not stated)	4392	·	·	-15	8	2.1	3
45	Cc1ccc(C(=O)Nc2ncccc2C)cc1S(=O)(=O)N1CCCCC1	5275	-2	3	-6	3	1.5	1
46	CC(=O)N1CCOc2ccc(S(=O)(=O)N(C)c3ccc(C)cc3)cc21	5509	3	5	-4	1	1.1	7
47	C1=CCC(C=Nn2cnnc2)CC1 (configuration not stated)	·	5	9	·	1	2.3	·
48	O=C(COC(=O)COc1ccccc1[N+](=O)[O-])Nc1ccccc1Br	2033	6	5	-2	-5	2.4	0
49	CCn1ccnc1CN(C)C(=O)C1CCC(=O)N(Cc2cccc(F)c2)C1 (configuration not stated)	4127	2	-17	-11	5	2.7	-4
50	O=C(CCN1CCc2ccccc2C(O)(c2ccccc2)C1)c1ccc2c(c1)OCCO2 (configuration not stated)	3324	-5	11	-10	8	17	-5

# From compound 34 up to 47, copied from above:
entry	Structure	Autofluor counter	Mtb hypoxia inh	Mtb hypoxia inh growth	PrP UTR inh	Sa ugtP lethal	Sa RN4220 lethal	BJeLR lethal
34	COc1ccc(C(=O)N2CCCC(c3nc(-c4cccs4)no3)C2)cc1OC (configuration not stated)	25010*	-1	0	-11	6	4.2	-2
35	CCC(=O)Nc1ccc(NC(=O)c2ccccc2)nc1	2107	0	-1	-63	-1	-1.1	11
36	CCn1cc(C(=O)O)c(=O)c2cc(F)c(N3CCN(C(=S)NC(=O)c4ccccc4Cl)CC3)cc21	4996	8	20	-22	100*	100*	-1
37	CCN(CCO)c1ncnc2c1sc1nc(C(C)C)c3c(c12)CC(C)(C)OC3	4328	-3	-6	16	-6	-0.9	6
38	O=C(Nc1cccc(O)c1)C1CC(c2ccc(Cl)cc2)=NO1 (configuration not stated)	4480	·	·	-20	·	·	4
39	CN(C(=O)NC1CC(=O)N(c2ccc3c(c2)OCCO3)C1)c1ccccc1 (configuration not stated)	4204	6	7	-30	15	4.0	1
40	O=C(NNc1cccc([N+](=O)[O-])c1)/C(=C\c1cccnc1)NC(=O)c1ccccc1	4685	6	4	-1	7	1.4	-2
41	COc1ccccc1CCNC(=O)CSc1nnc2ccc(-c3cccnc3)nn12	4214	8	15	-13	9	2.0	-2
42	O=C(NC(=S)Nc1ccc(S(=O)(=O)Nc2nccs2)cc1)c1cccc(F)c1	2638	19	8	-19	69	6.1	-11
43	COc1ccccc1-n1cnc2cc(C(=O)NCc3ccco3)ccc21	5815	·	·	-23	4	0.1	-5
44	O=C(NC1CCCCNC1=O)c1ccc(Cl)cc1 (configuration not stated)	4392	·	·	-15	8	2.1	3
45	Cc1ccc(C(=O)Nc2ncccc2C)cc1S(=O)(=O)N1CCCCC1	5275	-2	3	-6	3	1.5	1
46	CC(=O)N1CCOc2ccc(S(=O)(=O)N(C)c3ccc(C)cc3)cc21	5509	3	5	-4	1	1.1	7
47	C1=CCC(C=Nn2cnnc2)CC1 (configuration not stated)	·	5	9	·	1	2.3	·

# 2 records picked at random from those above:
entry	Structure	Autofluor counter	Mtb hypoxia inh	Mtb hypoxia inh growth	PrP UTR inh	Sa ugtP lethal	Sa RN4220 lethal	BJeLR lethal
50	O=C(CCN1CCc2ccccc2C(O)(c2ccccc2)C1)c1ccc2c(c1)OCCO2 (configuration not stated)	3324	-5	11	-10	8	17	-5
33	CC(=NNC(=O)CNC(=O)C1COc2ccccc2O1)c1ccco1 (configuration not stated)	·	12	7	·	5	1.0	·

# Other structures
entry	Structure	Autofluor counter	Mtb hypoxia inh	Mtb hypoxia inh growth	PrP UTR inh	Sa ugtP lethal	Sa RN4220 lethal	BJeLR lethal
51	CN(C)S(=O)(=O)c1ccc(C(=O)Nc2nnc(-c3cccs3)o2)cc1	2638	-1	10	-86	-11	17	1
52	COc1cccc(/C=N/NC(=O)CCC(=O)Nc2ccc(Br)cc2)c1	3831	·	·	-13	·	·	-7
53	COCCN(C(=O)c1ccccc1Oc1ccccc1)c1c(N)n(CC(C)C)c(=O)[nH]c1=O	?	5	-2	-11	6	0.7	·
54	NS(=O)(=O)c1ccc(CCNS(=O)(=O)Cc2ccc(Cl)cc2)cc1	3294	13	4	-29	5	6.3	-5
55	COc1ccc(C(C(=O)NCc2ccccc2)N(C(=O)c2snc(C(N)=O)c2N)C2CCCC2)cc1 (configuration not stated)	6223	12	2	-5	-2	3.7	-9
56	O=C1NC2(CCSC2)C(=O)N1CC(=O)N(Cc1ccccc1)C1CCS(=O)(=O)C1 (configuration not stated)	4990	13	3	-24	-1	3.4	-1
57	O=S1(=O)CCOC[C@H](CC2CCCCC2)N1Cc1ccccc1F	3680	·	·	-11	·	·	-3
58	Nc1c(-c2ccccc2)cnn1-c1ccc(C(=O)O)cc1	7814	-7	-4	-65	-2	-0.2	5
59	O=c1nc(N2CCOCC2)nc(N/N=C/c2ccc3c(c2)OCO3)[nH]1	4124	·	·	-69	·	·	0
60	CCN(CC)S(=O)(=O)c1ccc(C(=O)NCC2(N3CCOCC3)CCCCC2)cc1	·	5	4	-2	1	0.7	·
61	COc1ccc(-c2[nH]ncc2CN2CCC(OCc3ccccc3)CC2)c(F)c1	2634	-6	-2	-4	-5	0.3	0
62	CCCCC(=O)Nc1ccccc1C(C)C	·	11	0	·	4	4.5	4
63	O=[N+]([O-])c1cccc(S(=O)(=O)NN=Cc2ccc3c(c2)OCO3)c1	·	9	0	·	0	11	·
64	COc1ccc(C(=O)NNC(=S)NC(=O)/C=C/c2cccs2)cc1	2129	-15	-1	6	7	50	5
65	COc1cccc(CC(=O)N(CCC2=CCCCC2)c2c(N)n(Cc3ccccc3)c(=O)[nH]c2=O)c1	7776	-5	7	-22	-4	-2.3	-7
66	Cc1cc(C)c(N(C(=O)c2csnn2)C(C(=O)NC2CCCC2)c2ccncc2)c(C)c1 (configuration not stated)	3796	9	1	-16	-2	5.0	-3
67	COC(=O)c1c(NC(=O)c2ccco2)sc(C(=O)N(C)C)c1C	10788	8	12	-8	-4	2.9	-3
68	CC(C)c1ccc(NC(=O)c2cc3c(=O)n(C)c4ccccc4c3n2C)cc1	3462	14	8	11	4	4.9	-3
69	COc1ccc(/C=C/C(=O)N2CCC(C(N)=O)CC2)cc1S(=O)(=O)N1CCOCC1	4084	-1	10	-13	2	5.9	1
